Marburg entry inh: qHTS for inhibitors of binding or entry into cells for Marburg Virus; Marburg virus pseudotyped entry inhibition, cell reporter; control for the full effect not named in the record; about a third of the inactives were read at about 46 µM; Potency, µM (series often up to 37.8 µM), without a hit: top-dose activity change, negative = inhibition, hits mostly inhibitors; 1.8% of 300,000 active; active = well fitted inhibition curve with a large enough effect; inconclusive = small, poorly fitted or top-dose-only effect, or effect the other way; inactive = flat fitted curve, though single readings scatter; tested in HEK293 cells; about a fifth of its hits are not listed in these tables; further: on the % scale 0 is the no-effect control and ±100 the full control effect; luciferase read-out
SARS PLpro yeast: qHTS of Yeast-based Assay for SARS-CoV PLP; AID 485353, 2010; S. cerevisiae expressing SARS-CoV PLpro, growth rescue; control for the full effect not named in the record; 0.19% of 330,000 active; Potency, µM (series often up to 32.9 µM), inactives show at the highest dose activity, positive = growth rescue; further: 0% is about no effect; nearly all actives have a fitted effect of over 55% in size; growth read by luminescence after 48 h
Cruzain inh Det: qHTS Assay for Promiscuous and Specific Inhibitors of Cruzain (with detergent); 0.43% of 200,000 active; purified cruzain, Z-FR-AMC fluorescence, 0.01% Triton; Potency, µM, for inactives: max response, negative = inhibition, most hits filed as inhibitors; AID 1478, 2009; active means well fitted curve in the direction sought with a large enough effect; inconclusive means small, poorly fitted or top-dose-only effect, or another doubt; inactive means no such curve, though single readings can be large; an effect the other way counts as inactive or inconclusive;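 further: plate controls were neutral wells for no effect and buffer without enzyme for full effect; nearly all actives have a fitted effect of over 40% in size; top concentration of the series not given in the record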
Target sequence (P25779 123-467 limits assumed): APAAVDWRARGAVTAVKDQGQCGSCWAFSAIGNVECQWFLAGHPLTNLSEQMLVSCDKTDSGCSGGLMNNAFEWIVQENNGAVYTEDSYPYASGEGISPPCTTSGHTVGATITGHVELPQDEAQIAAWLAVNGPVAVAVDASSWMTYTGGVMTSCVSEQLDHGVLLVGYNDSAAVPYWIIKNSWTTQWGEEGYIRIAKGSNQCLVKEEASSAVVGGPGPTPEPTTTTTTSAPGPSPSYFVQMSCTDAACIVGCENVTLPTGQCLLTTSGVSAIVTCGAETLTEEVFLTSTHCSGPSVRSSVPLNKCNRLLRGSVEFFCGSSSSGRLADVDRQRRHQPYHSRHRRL
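Enzyme 1.5 nM, Z-FR-AMC 2 uM, NaOAc 100 mM pH 5.5, DTT 5 mM, Triton X-100 0.01%; 15 min RT compound preincubation; kinetic ex360/em450, 60 s delta.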
StopGo reporter: High Throughput Screening for Foot and Mouth Disease Virus Antivirals; AID 1159524, 2015; Potency, µM (top dose mostly 57.9 µM), without a hit: at the highest dose signal change, negative = less light; 1.2% of 410,000 active; human cells with a luciferase reporter of 2A StopGo recoding; control for the full effect not named in the record; active = well fitted falling curve with a large enough effect; inconclusive = small, poorly fitted or top-dose-only effect; inactive = no such curve, though single readings can be large or run the other way; tested in HEK293T cells; further: on the % scale 0 is the no-effect control and ±100 the full control effect; nearly all actives have a fitted effect of over 45% in size; luciferase light after 4 h
Cruzain noTriton: qHTS Assay for Promiscuous and Specific Inhibitors of Cruzain (without detergent); purified cruzain, Z-FR-AMC fluorescence, no detergent; Potency, µM, for inactives: max response, negative = inhibition, most hits filed as inhibitors; 2.3% of 200,000 active; AID 1476, 2009; active means well fitted curve in the direction sought with a large enough effect; inconclusive means small, poorly fitted or top-dose-only effect, or another doubt; inactive means no such curve, though single readings can be large; an effect the other way counts as inactive or inconclusive;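 further: plate controls were enzyme without inhibitor for no effect and buffer without enzyme for full effect; nearly all actives have a fitted effect of over 40% in size; top concentration of the series not given in the record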
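Detergent-free condition (0.00005% Triton X-100) in acetate buffer pH 5.5 with DTT. 1.5 nM enzyme and compound were pre-mixed 15 min, then 2 uM Z-FR-AMC substrate added; reaction progress from fluorescence change between first and third reads (60 s).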
NS1 function inh: qHTS Assay for Inhibitors of Influenza NS1 Protein Function. S. cerevisiae slowed by influenza A NS1, growth recovery by OD600. Potency, µM (series often up to 46.1 µM), without a hit: at the highest dose activity, positive = more growth. 0.4% of 270,000 active. AID 2326, 2010; further: actives are rising curves; nearly all actives have a fitted effect of over 50% in size
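Compounds were scored for reversing the slow growth caused by influenza A NS1 in S. cerevisiae, measured by optical density at 600 nm. Assay medium contained 2% galactose at pH 6.0; NS1-free yeast of the same strain were the positive control.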
RE007 growth inh: qHTS Assay for Inhibitors of the HIV-1 protein Vpr; S. pombe RE007 Vpr strain, BacTiter-Glo ATP luminescence, 24 h; control for the full effect not named in the record; AID 651644, 2012; 0.21% of 360,000 active; Potency, µM (series often up to 92.2 µM), for the others: top-dose activity change, negative = less growth; active = well fitted falling curve with a large enough effect; inconclusive = small, poorly fitted or top-dose-only effect; inactive = no such curve, though single readings can be large or run the other way;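 further: on the % scale 0 is the no-effect control and ±100 the full control effect; nearly all actives have a fitted effect of over 50% in size; the assay follows cell death caused by Vpr and the record does not say whether a fall means rescue or toxicity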
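Fission yeast strain RE007, carrying one chromosomally integrated HIV-1 vpr copy, was seeded at OD 0.01 in PMG+AL medium with 23 nL pinned compound. After 24 h at 30 °C and 99% humidity, viability was read by BacTiter-Glo luminescence.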
LASV entry inh: qHTS for Inhibitors of binding or entry into cells for Lassa Virus. 1.2% of 300,000 active. AID 540256, 2011. Lassa virus pseudotype entry inhibition, cell reporter; control for the full effect not named in the record. Potency, µM (series often up to 37.9 µM), without a hit: at the highest dose activity change, negative = inhibition, hits mostly inhibitors; active means well fitted inhibition curve with a large enough effect; inconclusive means small, poorly fitted or top-dose-only effect, or effect the other way; inactive means flat fitted curve, though single readings scatter; tested in HEK293 cells; further: on the % scale 0 is the no-effect control and ±100 the full control effect; nearly all actives have a fitted effect of over 50% in size; luciferase read-out
Active calls of the source: *; ? = inconclusive; . = not tested or not shown; & = joins results of further samples; [ ] = remark or other dose. Unless noted, the call rests on the fitted dose curve; in most records, active means well fitted rising curve with a large enough effect; inconclusive means small, poorly fitted or top-dose-only effect; inactive means no such curve, though single readings can be large or run the other way. Potency means the concentration at half of the fitted maximal effect.

entry | canonical_smiles | Marburg entry inh | SARS PLpro yeast | Cruzain inh Det | StopGo reporter | Cruzain noTriton | NS1 function inh | RE007 growth inh | LASV entry inh
1 | CCC(C)/C(C)=N/NC(=O)c1ccccc1OCCOc1ccccc1 (stereo not given) | ? | -3% | . | -11% | . | 9% | 7% | 12%[46.1 µM]
2 | CCOC(=O)c1ccc(NC(=O)C2CC(=O)Nc3nc4ccccc4n32)cc1 (stereo not given) | -1%[46.1 µM] | -2% | . | -1% | . | . | -13% | 11%
3 | COc1cccc(-c2nc3c(c(SCC(=O)Nc4cc(C)ccc4C)n2)Cc2c(CO)cnc(C)c2O3)c1 | . | . | -1.6% | 2% | -6% | . | . | -8%[46.1 µM]
4 | Cc1oc2ncn(CC(C)C)c(=O)c2c1C(=O)NCc1cccc(Cl)c1 | . | . | -5.5% | -10% | 8% | . | . | -14%[46.1 µM]
5 | Cc1ccc(S(=O)(=O)NC(=O)COc2ccc([N+](=O)[O-])cc2)cc1 | ? | 12% | . | -14% | . | 5% | 0% | -5%
6 | CC(C)(C)NC(=O)c1cnn(-c2ccccc2)c1C1CCN(C(=O)OC(C)(C)C)CC1 | . | . | -0.1% | -6% | -1% | . | . | -20%[46.1 µM]
7 | CC(C)NC(=O)c1cc2c(=O)n3ccccc3nc2s1 | -3%[46.1 µM] | 0% | . | 17% | . | -1% | -9% | 13%[46.1 µM]
8 | Cc1cc(C(=O)CSc2nnnn2C)c(C)n1Cc1ccco1 | . | -1% | . | 38%[activator] | . | 2% | 1% | .

Part of the list above in order of formula weight, rising:
entry | canonical_smiles | Marburg entry inh | SARS PLpro yeast | Cruzain inh Det | StopGo reporter | Cruzain noTriton | NS1 function inh | RE007 growth inh | LASV entry inh
7 | CC(C)NC(=O)c1cc2c(=O)n3ccccc3nc2s1 | -3%[46.1 µM] | 0% | . | 17% | . | -1% | -9% | 13%[46.1 µM]
8 | Cc1cc(C(=O)CSc2nnnn2C)c(C)n1Cc1ccco1 | . | -1% | . | 38%[activator] | . | 2% | 1% | .
5 | Cc1ccc(S(=O)(=O)NC(=O)COc2ccc([N+](=O)[O-])cc2)cc1 | ? | 12% | . | -14% | . | 5% | 0% | -5%
1 | CCC(C)/C(C)=N/NC(=O)c1ccccc1OCCOc1ccccc1 (stereo not given) | ? | -3% | . | -11% | . | 9% | 7% | 12%[46.1 µM]
4 | Cc1oc2ncn(CC(C)C)c(=O)c2c1C(=O)NCc1cccc(Cl)c1 | . | . | -5.5% | -10% | 8% | . | . | -14%[46.1 µM]
2 | CCOC(=O)c1ccc(NC(=O)C2CC(=O)Nc3nc4ccccc4n32)cc1 (stereo not given) | -1%[46.1 µM] | -2% | . | -1% | . | . | -13% | 11%
6 | CC(C)(C)NC(=O)c1cnn(-c2ccccc2)c1C1CCN(C(=O)OC(C)(C)C)CC1 | . | . | -0.1% | -6% | -1% | . | . | -20%[46.1 µM]
3 | COc1cccc(-c2nc3c(c(SCC(=O)Nc4cc(C)ccc4C)n2)Cc2c(CO)cnc(C)c2O3)c1 | . | . | -1.6% | 2% | -6% | . | . | -8%[46.1 µM]

(continued)
entry | canonical_smiles | Marburg entry inh | SARS PLpro yeast | Cruzain inh Det | StopGo reporter | Cruzain noTriton | NS1 function inh | RE007 growth inh | LASV entry inh
9 | NS(=O)(=O)c1ccc(NC(=O)CN2CCN(c3ccc(F)cc3)CC2)cc1 | . | . | 0.2% | -19% | 0% | . | . | 10%[46.1 µM]
10 | CCN(c1ccccc1)c1nnc(NC(=O)Nc2cccc(Cl)c2C)s1 | ? | . | -3.8% | 0% | 10% | . | . | -12%[46.1 µM]
11 | Cc1ccc(C(=O)CSc2nnc(CNc3ccc(C)cc3C)o2)cc1 | 4% | 0% | 0.5% | -8% | -23% | 3% | 8% | 2%
12 | O=C(N/N=C/c1cccnc1)c1cccs1 | 20%[46.1 µM] | 0% | . | 26% | . | -2% | 1% | 17%[46.1 µM]
13 | CCN(CC)Cc1c(C(=O)OC(C)C)nnn1-c1nonc1N | -4% | 6% | 2.7% | -11% | -3% | -1% | -4% | ?
14 | CCCSc1nnc(-c2c[nH]c3ccccc23)n1C | . | -6% | -3.6% | 31%[activator] | -1% | -14% | -15% | .
15 | CC(=O)Nc1ccc2nc(SCC(=O)N3CCOCC3)sc2c1 | ? | -5% | . | 16% | . | . | 1% | 12%
16 | O=C(C1CCN(C2CCN(C/C(Cl)=C/c3ccccc3)CC2)CC1)N1CCOCC1 | . | -3% | . | -17% | . | 0% | 4% | .
17 | COC(=O)C(C)NC(=O)C1CCCN1S(=O)(=O)c1cc(C)c(Cl)cc1C (stereo not given) | 0% | -5% | 4.0% | 6% | 15% | -1% | 1% | 15%
18 | Cc1cc(C)nc(-n2ncc3c2CC(c2ccccc2C)CC3=O)n1 (stereo not given) | . | -15% | 1.9% | -15% | 2% | 5% | -3% | .
19 | CCc1ccc(OCCNC(=O)c2ccc(S(=O)(=O)N(C)C)cc2)cc1 | 2% | 11% | -1.5% | -32% | -5% | 0% | 4% | -23%
20 | CCCCC1=CC2=CC(=O)C(C)(OC(=O)CC)C(=O)C2=CN1CCN1CCOCC1 (stereo not given) | . | 0% | . | -14% | . | 22% | 10% | .
21 | CCOC(=O)c1c(NC(=O)COc2ncnc3ccccc23)sc(C)c1CC | ? | -20% | -11% | ? | -2% | 10% | -3% | 2%
22 | COc1cc(/C=C(\C#N)c2nc3c(s2)CCCC3)ccc1O | -1% | -25% | -11% | . | ? | -46% | . | .
23 | CCCC1CCC(C2=N/C(=C\c3ccc(OC)c(OC)c3)C(=O)O2)CC1 (stereo not given) | 0% | -1% | 1µM* | 0% | 2.5µM* | 11% | -18% | 0%
24 | COc1ccc(CC(=O)NCCN2CCCC2)cc1 | -2% | -2% | 3.0% | 29% | 5% | -2% | 0% | 17%
25 | COc1ccc(C(=O)c2ccc(OC)c3cccc(O)c23)cc1OC | -2% | -23% | -4.3% | 63%[activator] | -2% | -8% | 0% | -3%
26 | CCOC(=O)c1cc(C#N)c(SCc2ccc(C#N)cc2)nc1C | -23%&-23% | 6% | -4.1% | 1% | 10% | 4% | 9% | -9%
27 | Cc1ccc2oc(-c3cccc(NC(=S)NC(=O)/C=C/c4ccco4)c3)nc2c1 | ? | 0% | -7.0% | ? | 4µM* | ? | 2% | ?
28 | CCOC(=O)CNS(=O)(=O)c1cc(-c2nn(C)c(=O)c3ccccc23)ccc1C | -4%&-4%&-4% | 1% | 5.8% | 61%[activator] | 4% | ? | 11% | -10%
29 | CCC(Sc1nc2ccncc2[nH]1)C(=O)Nc1cc(Cl)ccc1C (stereo not given) | 4%[46.1 µM] | 8% | -15% | -6%&-16% | 11% | -2% | -2% | -3%[46.1 µM]
30 | COC(=O)[C@@]1(Cc2ccc(F)cc2)[C@H]2c3cc(C(=O)N(C)C)[nH]c3C[C@H]2CN1C(=O)c1ccccc1 | -28% | 5% | -5.6%&0.4% | -22% | ? | 1% | 8% | ?
31 | COc1ccc(N2CCN(Cc3cc(=O)oc4ccc5ccccc5c34)CC2)cc1 | 27%[46.1 µM] | -2% | -0.6% | ? | ? | -87% | 5% | -8%
32 | Cc1ccc(SCC(=O)Nc2ccc3oc(-c4ccc(F)cc4)nc3c2)cc1 | ? | . | -5.2% | 36%[activator] | 11% | . | . | 23%[46.1 µM]
33 | O=C(/C=C/c1ccc([N+](=O)[O-])cc1)NNC(=O)C1CC1 | 12% | -6% | . | 4% | . | . | 2% | -2%
34 | CCCCCCC(=O)N=Nc1c(O)[nH]c2ccc([N+](=O)[O-])cc12 | 17% | -4% | -2.7% | -10% | 25µM* | 9% | 19% | -11%
35 | COc1ccc(Nc2nccc3c2ncn3C)cc1 | ? | . | . | 3% | . | . | -15% | ?
36 | CCc1cccc(C)c1NC(=O)COC(=O)c1ccc2c(c1)S(=O)(=O)c1ccccc1C2=O | 11%&-4% | 11% | -4.0% | -5% | 2% | -5% | -4% | 11%&8%
37 | CC(C)NC(=O)c1onc(CSc2cccc(F)c2)c1C(=O)O | . | 0% | 1.1% | -1% | 6% | 16% | -5% | .
38 | COc1ccccc1CNC(=O)Cc1c(C)c2c(cc(C)c3c(C)c(C)oc32)oc1=O | 14%[46.1 µM] | . | 1.4% | -13% | -6% | . | . | 15%[46.1 µM]
39 | COc1ccc(CN(C)c2ncnc(N)n2)cc1 | 2% | -2% | 2.6% | 1% | -1% | 6% | 28% | 9%
40 | CC(=O)c1cccc(Nc2nc(-c3cccnc3)cs2)c1 | ? | -14% | . | 2% | . | -23% | 4% | ?
41 | Cc1c(C(=O)N2CCOCC2)c(S(=O)(=O)Nc2ccc(F)cc2)c(C)n1C | . | 3% | . | 38%[activator] | . | 6% | -13% | .
42 | CC(C)(C)NC(=O)c1cc(-c2ccccc2)n[nH]1 | 5% | -2% | . | 8% | . | . | -6% | -7%
43 | COC(=O)c1cnn(C(=O)c2ccccc2Br)c1N | ? | 2% | 5.5% | 27% | -5% | -10% | 1% | -16%
44 | O=C(NCc1ccc(F)cc1)c1ccc[nH]1 | -11%[46.1 µM] | -1% | . | 10% | . | 1% | -9% | .
45 | COc1cccc(CN2CCCN(CC(=O)Nc3ccc4c(c3)OCCO4)S2(=O)=O)c1 | . | . | -2.7% | -10% | 9% | . | . | -9%[46.1 µM]
46 | O=c1c2c(nc3cc(-c4cccc(F)c4)[nH]n13)CCC2 | ? | 1% | . | -8% | . | . | 10% | ?
47 | Cc1ccc(NC(=O)c2cccs2)cc1[N+](=O)[O-] | -13%[46.1 µM] | -2% | . | 25% | . | -52% | -11% | -10%
48 | Cc1sc(NC(=O)c2ccccc2)c(C(c2ccccn2)N2CCN(CCO)CC2)c1C (stereo not given) | ? | 14% | -10% | -29% | 6% | 24% | -27% | -11%
49 | CCC(C)N1CCN(S(=O)(=O)c2ccc3ccccc3c2)CC1 (stereo not given) | . | -1% | . | 2% | . | -2% | -1% | .

Assay outcomes as filed in PubChem BioAssay.
